KCNQ2 inh = KCNQ2 potassium channel inhibitors, primary screen, cell-based, CHO-K1, FluxOR thallium flux, B-score (AID 2156) | 20 min; active compounds read low; only compounds with negative scores are shown here; some inactives read as strong as hits | B-score at 10 µM | 1.1% of 310,000 active;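 active means fluorescence ratio B-score at most minus 3 library SDs, with starting brightness B-score within 2 library SDs, cut at about -5.5 in these data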
Target sequence (O88943 whole entry, looked up): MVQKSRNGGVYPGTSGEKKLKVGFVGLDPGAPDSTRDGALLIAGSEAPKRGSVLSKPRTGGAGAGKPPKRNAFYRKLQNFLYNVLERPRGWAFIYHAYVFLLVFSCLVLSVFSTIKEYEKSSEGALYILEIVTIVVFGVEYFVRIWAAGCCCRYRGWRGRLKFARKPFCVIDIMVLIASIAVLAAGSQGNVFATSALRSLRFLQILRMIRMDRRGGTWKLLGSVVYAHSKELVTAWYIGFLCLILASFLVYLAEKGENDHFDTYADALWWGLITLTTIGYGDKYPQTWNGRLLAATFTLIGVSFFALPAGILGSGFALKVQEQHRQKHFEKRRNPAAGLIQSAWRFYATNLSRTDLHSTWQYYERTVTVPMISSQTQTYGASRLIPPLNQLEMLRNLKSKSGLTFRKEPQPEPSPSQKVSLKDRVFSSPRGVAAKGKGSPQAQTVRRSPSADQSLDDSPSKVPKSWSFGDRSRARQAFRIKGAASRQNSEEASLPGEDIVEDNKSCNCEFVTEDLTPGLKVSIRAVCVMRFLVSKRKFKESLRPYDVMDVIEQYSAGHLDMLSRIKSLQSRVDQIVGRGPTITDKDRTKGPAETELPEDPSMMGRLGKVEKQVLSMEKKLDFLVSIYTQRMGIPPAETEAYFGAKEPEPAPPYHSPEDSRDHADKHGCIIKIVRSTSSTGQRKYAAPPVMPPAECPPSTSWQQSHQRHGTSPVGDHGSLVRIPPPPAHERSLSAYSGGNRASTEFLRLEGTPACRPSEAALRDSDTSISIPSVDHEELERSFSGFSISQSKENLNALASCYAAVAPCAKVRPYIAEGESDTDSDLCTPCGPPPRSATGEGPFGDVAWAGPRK
KCNQ2 inh baseline = also measured in KCNQ2 inh; calls as there; B-score; measured here: initial fluorescence intensity artifact check;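 brightness before thallium and not channel activity; 0 = typical well and far values either way flag optical interference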
Active calls of the source: *; i = inactive. Not all compounds are listed. The share of hits here may be higher or lower than overall.

KCNQ2 inh | KCNQ2 inh baseline | smiles
i | 1.9 | Cc1ccc(NC(=O)CSCC(=O)N(C)CC(=O)Nc2cccc(F)c2)cc1
i | -1.2 | NC(=O)C1CCN(CC(O)COCc2ccccc2Cl)CC1 (stereo unspecified)
i | -0.82 | N#Cc1cccc(Nc2c3c(nc4ccccc24)CCCC3)c1
i | -1.2 | Cc1ccccc1NC(=O)OCc1cn(-c2ccc(Cl)cc2)nn1
-7.2* | -0.96* | O=C(Oc1ccc(Br)cc1C(=O)/C=C/c1ccccc1F)c1ccco1
i | 0.03 | CCCCN(C)C(=O)Cn1nc(Cc2ccncc2)c2ccccc2c1=O
i | -0.81 | Cc1ccc(C(c2nnnn2C2CCCCC2)N2CCN3CCCC3C2)cc1 (stereo unspecified)
i | 0.21 | COc1ccc(OC)c2[nH]c(C(=O)N3CCC(C(=O)O)CC3)cc12
i | 0.59 | CC(=O)CC1(OC(C)=O)C(=O)N(C)c2ccccc21 (stereo unspecified)
i | 0.36 | O=C1CCCc2c1[nH]c1ccccc21
i | 0.04 | COc1ccc(NC(C#N)c2ccc(OC)cc2)cc1 (stereo unspecified)
i | -0.71 | CCN1C(=O)/C(=C/C=C2/SCCN2C)SC1=S
i | 0.71 | CCOc1ccc(NC(=O)CSc2nnc(Cc3cccn3C)n2-c2ccc(OC)cc2)cc1
i | -0.91 | COc1ccc(OC)c(C(O)c2coc3ccc(O)c(CN(C)C)c23)c1 (stereo unspecified)
i | 1 | O=C(NCc1cccnc1)C1c2ccccc2C(=O)N1C1CCCC1 (stereo unspecified)
i | 0.8 | O=C(NCCCn1ccnc1)c1ccco1
i | -1.8 | Cn1c(-c2ccc3c(c2)OCO3)cnc1NC(=O)CCC(=O)NCCc1ccccc1
i | -0.82 | COc1cc2c(C(=O)Nc3ccc4c(c3)OCO4)cn(CC(C)C)c(=O)c2cc1OC
i | -1.7 | COC(=O)C(Cc1cnc(Cl)s1)(C(=O)OC)c1ccc([N+](=O)[O-])cc1
i | 3.2 | CCOc1ccc(N2CC(C(=O)NC3=NCCS3)CC2=O)cc1 (stereo unspecified)
i | 0.45 | Cc1ccc2nc(-c3ccc(O)cc3)c(Nc3ccc4c(c3)OCCO4)n2c1
i | -0.78 | COC(=O)CC(C(=O)Nc1cc(C(=O)OC)cc(C(=O)OC)c1)N1CCN(C)CC1 (stereo unspecified)
i | -1.3 | COc1ccc(NC(=O)C2CCCN(S(=O)(=O)c3ccc4c(c3)oc(=O)n4C)C2)c(OC)c1 (stereo unspecified)
i | -1.7 | CCCCN(CC)C(=O)/C=C/c1cccc([N+](=O)[O-])c1
i | -0.78 | Clc1ccc(N2COC3c4cccc5cccc(c45)C32)cc1 (stereo unspecified)
i | -0.04 | O=C(Nc1ccncc1)c1cc(-c2ccccn2)nc2ccc(Br)cc12
i | -0.27 | Cc1ccc(S(=O)(=O)N2CCCCC2)cc1C(=O)NC1CC(C)(C)NC(C)(C)C1
i | -0.03 | COc1ccc(Cc2nnc(SCC(=O)NC(C)c3ccccc3)o2)cc1 (stereo unspecified)
i | 0.04 | CCCCC(CCC(=O)Nc1ccccc1C(=O)OCC)C(=O)O (stereo unspecified)
i | -0.76 | CN(c1ccccc1C(=O)NC1CCCCC1)S(=O)(=O)c1ccccc1

3 compounds out of the list above, arranged by the value under KCNQ2 inh baseline, ascending.
mol | KCNQ2 inh baseline
CN(c1ccccc1C(=O)NC1CCCCC1)S(=O)(=O)c1ccccc1 | -0.76
Cc1ccc(S(=O)(=O)N2CCCCC2)cc1C(=O)NC1CC(C)(C)NC(C)(C)C1 | -0.27
O=C(Nc1ccncc1)c1cc(-c2ccccn2)nc2ccc(Br)cc12 | -0.04

Part of the list above, bar-delimited:
Molecule | KCNQ2 inh | KCNQ2 inh baseline
CCCCN(CC)C(=O)/C=C/c1cccc([N+](=O)[O-])c1 | i | -1.7
Clc1ccc(N2COC3c4cccc5cccc(c45)C32)cc1 (stereo unspecified) | i | -0.78
O=C(Nc1ccncc1)c1cc(-c2ccccn2)nc2ccc(Br)cc12 | i | -0.04
Cc1ccc(S(=O)(=O)N2CCCCC2)cc1C(=O)NC1CC(C)(C)NC(C)(C)C1 | i | -0.27
COc1ccc(Cc2nnc(SCC(=O)NC(C)c3ccccc3)o2)cc1 (stereo unspecified) | i | -0.03
CCCCC(CCC(=O)Nc1ccccc1C(=O)OCC)C(=O)O (stereo unspecified) | i | 0.04
CN(c1ccccc1C(=O)NC1CCCCC1)S(=O)(=O)c1ccccc1 | i | -0.76

(next part)
KCNQ2 inh | KCNQ2 inh baseline | smiles
i | 0.2 | COc1ccc(Cl)cc1NC(=O)C(C)N1CCc2ccccc21 (stereo unspecified)
i | -0.18 | CC(/C=N/NC(=S)Nc1cccc(S(=O)(=O)N(C)C)c1)c1ccccc1 (stereo unspecified)
i | -1.6 | CCOC(=O)C1(CCOc2ccccc2)CCN(Cc2ccc3c(c2)OCCO3)CC1
i | -0.69 | Nc1ccc2c(c1)Nc1ccccc1CC2
i | -0.28 | O=C(CC1C(=O)NCCN1Cc1ccc(F)cc1Cl)NC1CCCCCCC1 (stereo unspecified)
i | 2.8 | O=C(c1ccccc1)C1CCN(C(=O)C2CCC(=O)N(Cc3ccccc3F)C2)CC1 (stereo unspecified)
i | -1.8 | COC(=O)CNC(=O)c1cccc(Cl)c1
i | 0.27 | COc1ccc(/C=C(/CC(=O)Nc2ccccc2)c2nc3ccccc3s2)cc1
-5.9* | -2.2* | CCC(c1nnnn1C(C)(C)C)N(Cc1cccs1)Cc1cc2cc(C)c(C)cc2n2nnnc12 (stereo unspecified)
i | -0.1 | COc1cc2c(cc1OC)C(C(=O)N1CCN(c3ccccc3)CC1)C(c1cccs1)N(C)C2=O (stereo unspecified)
i | 0.23 | Cc1cccc(NC(=S)N(C)C2(c3ccccc3Cl)CCCCC2=O)c1 (stereo unspecified)
i | 2.1 | COc1ccc(-c2c(=O)n(OCc3nc4ccccc4[nH]3)c3ccccc3[n+]2[O-])cc1
i | -0.67 | CCOc1ccccc1NC(=O)CSc1nnnn1C1CCCC1
i | 1.3 | C=Cn1cc[n+](CC(=O)c2cccs2)c1
i | 0.58 | NC(=O)c1ccccc1NC(=O)Nc1cccc2ccccc12
i | -0.78 | O=S(=O)(c1ccccc1)N1CCCc2ccccc21
i | -0.07 | COc1cccc(C(=O)NCCS(=O)(=O)NCc2ccc3c(c2)OCO3)c1
i | 0.74 | CC(/C=C1\SC(=S)N(CCC(=O)Nc2ccccc2O)C1=O)=C\c1ccccc1
i | -0.69 | CC(OC(=O)COc1ccccc1Cc1ccccc1)C(=O)N(C)c1ccccc1 (stereo unspecified)
i | 0.93 | Cn1c(=O)cc(SCC(=O)Nc2ccc3c(c2)OCO3)c2ccccc21
i | 2 | N=c1c2c3c(sc2nc2n1CCC2)CCCC3
i | 2.7 | CCc1ccc(-c2ccc(SCc3ccccn3)nn2)cc1
i | 0.18 | Cc1nc(=O)c(-c2ccccc2)c(C)n1CCCO
i | 0.33 | CC(C)C(=O)Nc1ccc(-c2ccc3nncn3n2)cc1
i | -0.16 | CCOC(=O)N1CCN(c2c(NCCCN(CC)c3cccc(C)c3)c(=O)c2=O)CC1
i | -0.72 | COc1ccc(N/C=C\C(=O)c2ccc3ccccc3c2)cc1
i | -1.4 | COCCCNC(=O)C(=O)NCC1CCCN1S(=O)(=O)c1cccs1 (stereo unspecified)
i | -0.04 | O=C(CSc1nnnn1-c1ccccc1)c1cc2ccccc2oc1=O
i | -1.9 | COCCCNC(=O)c1cc2cc([N+](=O)[O-])cc(OC)c2oc1=O
i | 0.01 | Cc1ccccc1OC(C)C(=O)Nc1ccc2c(c1)OCCO2 (stereo unspecified)

Structures listed so far containing an NH in an aromatic ring (three):
KCNQ2 inh | KCNQ2 inh baseline | smiles
i | 0.21 | COc1ccc(OC)c2[nH]c(C(=O)N3CCC(C(=O)O)CC3)cc12
i | 0.36 | O=C1CCCc2c1[nH]c1ccccc21
i | 2.1 | COc1ccc(-c2c(=O)n(OCc3nc4ccccc4[nH]3)c3ccccc3[n+]2[O-])cc1

Next section:
KCNQ2 inh | KCNQ2 inh baseline | smiles
i | 0.3 | Cc1cccnc1CCNC(=O)c1ccc(OC2CCN(Cc3ccccn3)CC2)cc1
i | -0.98 | CC1(C)CC(=O)C2=C(C1)OC(N)=C(C#N)C21CCC2(CC1)OCCO2
i | -1.2 | CCC(C)[C@H](NC(=O)NCc1ccccc1Cl)C(=O)OC (stereo partly specified)
i | -1.6 | COc1cc2c(cc1OC)C(C)N(C(=O)c1sc(-c3cnccn3)nc1C)CC2 (stereo unspecified)
i | -0.17 | CC1CCCN(CCCNS(=O)(=O)c2cc(Br)cc3c2N(C(=O)C2CC2)CC3)C1 (stereo unspecified)
i | -1.6 | Cc1c(C(=O)Nc2cc(S(=O)(=O)N3CCOCC3)ccc2N2CCN(C)CC2)oc2ccccc12
i | 1.5 | C=CCn1c(SCCN2CCCCC2)nc2c1c(=O)[nH]c(=O)n2C
i | 0.29 | COc1ccc(CCN2CC(C(=O)NCc3ccccc3)CCC2=O)cc1 (stereo unspecified)
i | 0.01 | Cc1cccc(NS(=O)(=O)c2cc3c4c(c2)CCN4C(=O)CC3)c1C
i | -0.53 | CCOC(=O)c1cc2c(ccn2C)n1Cc1ccccc1Cl
i | -0.17 | Cc1cccc2sc(N(CCCN(C)C)C(=O)CCS(=O)(=O)c3ccccc3)nc12
i | -1.8 | CCc1ccccc1N/N=C(/C)c1c(O)cc(C)oc1=O
i | -1 | COCCN(C(=O)COC(=O)c1ccccc1Nc1ccccc1)c1c(N)n(Cc2ccccc2)c(=O)[nH]c1=O
i | 2.1 | CC(C)c1ccc2oc3nc(N)c(C(=O)O)cc3c(=O)c2c1
i | -0.01 | CCCCn1c(N)c(N(CC(C)C)C(=O)c2cccc(-n3cnnn3)c2)c(=O)[nH]c1=O
i | -0.02 | CCN(CC1CCCN(CCc2cccc(F)c2)C1)C(=O)c1cc2ccccc2o1 (stereo unspecified)
i | -2.6 | CN(C[C@H](Cc1ccccc1)N(C[C@H](Cc1ccccc1)N(CC1(c2ccccc2)CC1)N=O)N=O)N=O
i | 0.01 | Cc1nc2ccccc2n1CC(=O)c1ccccc1
i | -0.78 | COc1ccc(Br)cc1CNC(=O)Cc1c(C(=O)O)[nH]c2ccc(Cl)cc12
i | 0.3 | O=C(CSCc1ccc(Cl)cc1)N1CCCCC1
i | 1.9 | O=C(c1cc(-c2ccc(Cl)cc2Cl)on1)N1CCCCCC1
i | -0.01 | CC1Oc2ccccc2N(CC(=O)c2cccc(Cl)c2)C1=O (stereo unspecified)
i | -1.8 | CCc1ccc(C(=O)c2cnc3ccc(OC)cc3c2N2CCN(CC)CC2)cc1
i | 0.94 | COC(=O)c1ccc(N=C2S/C(=C\c3cc(C)n(-c4cccnc4)c3C)C(=O)N2C)cc1
i | 1.5 | CCNCc1nc2cc(OC)c(OC)cc2c(=O)[nH]1
i | 0.07 | Oc1cc2ccccc2nc1-c1ccccc1Cl
i | -1.2 | O=C1c2cc(Cl)ccc2OC2(CCNCC2)C12CC(c1ccc(Cl)cc1)=NO2 (stereo unspecified)
i | -0.3 | CC(C)Nc1nnc(SC(C)C(=O)NCc2ccc3c(c2)OCO3)s1 (stereo unspecified)
i | -0.03 | CSc1cccc(CN2CCN(Cc3ccccc3)C(CCO)C2)c1 (stereo unspecified)
i | -3.2 | CC(C)(C)OC(=O)CN1C(=O)C(Sc2n[nH]c(-c3ccccc3)n2)CCc2ccccc21 (stereo unspecified)
i | 2 | COCCn1nnnc1C(c1ccccc1Cl)N1CCN(c2ccccc2OC)CC1 (stereo unspecified)
i | -0.09 | CCN(CC)S(=O)(=O)c1ccc(N/N=C(\C)c2ccc(OC)cc2O)nc1
i | -0.11 | COCCCNC(=O)C1=CCN(S(=O)(=O)c2ccc(C)cc2)CC1
i | 0.2 | NC(=O)c1nsc(C(=O)N(Cc2ccco2)C(C(=O)NCc2ccc(F)cc2)c2ccc(O)cc2)c1N (stereo unspecified)
i | -1.9 | CC(C)(C)C(=O)C1=C(O)C(=O)N(Cc2ccccc2)C1c1ccccc1F (stereo unspecified)
i | 1.1 | CC(C)OC(=O)c1cccc(C(=O)Nc2cccc(NC(=O)c3cccc(C(=O)OC(C)C)n3)n2)n1
i | -1.8 | CSc1nc2ccccc2nc1N(C)S(=O)(=O)c1ccc(C)cc1
i | -0.01 | CNC(=O)CSc1nnc(-c2ccc(S(=O)(=O)N3CCCC3)cc2)n1-c1cccc(C)c1C
i | 0.23 | Cc1ccc(Nc2c([N+](=O)[O-])ccc3nonc23)c(C)c1
i | -0.01 | O=C(NCc1ccccc1)C1C(=O)N(Cc2ccccc2)C(=O)C1C1(O)CCCC1 (stereo unspecified)
i | -0.05 | Cc1sc2ncnc(N3CCC(C(=O)Nc4ccccc4C(C)(C)C)CC3)c2c1C
i | -0.05 | CCCCn1c(=O)[nH]c(=O)c2c1nc(-c1ccccc1OC(F)F)n2C
i | 1.1 | COc1ccc(CCNC(=O)c2c(O)c3cccc4c3n(c2=O)CC4)cc1OC
i | 1.9 | COc1cc(OC)nc(NC(=O)CS(=O)(=O)c2ccccc2)n1
i | 0.66 | CCOC(=O)N1CCC(N(CCN(C)C)C(=S)Nc2cccc(Cl)c2C)CC1
i | -2 | Cc1cccc(NC2=NCC(=O)N2Cc2ccccc2)c1
i | 2.2 | CC1=C(C)C(O)N(Cc2ccccc2)C1=O (stereo unspecified)
i | -0.03 | COCCC(=O)N1CCCC(C(=O)c2ccc3c4c(cccc24)CC3)C1 (stereo unspecified)
i | -0.03 | CSc1ccccc1C(=O)N1CCC2(CC1)CC(=O)c1ccccc1O2
i | 0.05 | COc1ccc(C(CC(=O)NCCCN2CCOCC2)NS(=O)(=O)c2ccc(C)cc2)cc1 (stereo unspecified)
i | -1.2 | Cc1ccsc1/C=N/NC(=O)Nc1ccccc1
i | -0.3 | c1ccc(Cc2nnc3sc(C4COc5ccccc5O4)nn23)cc1 (stereo unspecified)

Assay outcomes deposited in PubChem BioAssay by Johns Hopkins Ion Channel Center.
